Compound activity deposited in PubChem BioAssay by National Center for Advancing Translational Sciences (NCATS).
NPR1 antag – antagonists of human natriuretic peptide receptor Npr1 | 76,000 compounds, 1.6% hits | Potency, µM (top dose mostly 46.3 µM), inactives show at the highest dose activity change, negative = inhibition, most hits filed as inhibitors | AID 1347048 | HEK293 hNpr1 GloSensor cGMP, ANP-stimulated luminescence | P16066; active = well fitted inhibition curve with a large enough effect; inconclusive = small, poorly fitted or top-dose-only effect; inactive = no such curve, though single readings can be large or run the other way;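 also: nearly all actives have a fitted effect of over 60% in size; nearly all hits also lower the signal before the agonist is added; a reference antagonist and vehicle were the controls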
Target sequence (P16066 whole entry, looked up): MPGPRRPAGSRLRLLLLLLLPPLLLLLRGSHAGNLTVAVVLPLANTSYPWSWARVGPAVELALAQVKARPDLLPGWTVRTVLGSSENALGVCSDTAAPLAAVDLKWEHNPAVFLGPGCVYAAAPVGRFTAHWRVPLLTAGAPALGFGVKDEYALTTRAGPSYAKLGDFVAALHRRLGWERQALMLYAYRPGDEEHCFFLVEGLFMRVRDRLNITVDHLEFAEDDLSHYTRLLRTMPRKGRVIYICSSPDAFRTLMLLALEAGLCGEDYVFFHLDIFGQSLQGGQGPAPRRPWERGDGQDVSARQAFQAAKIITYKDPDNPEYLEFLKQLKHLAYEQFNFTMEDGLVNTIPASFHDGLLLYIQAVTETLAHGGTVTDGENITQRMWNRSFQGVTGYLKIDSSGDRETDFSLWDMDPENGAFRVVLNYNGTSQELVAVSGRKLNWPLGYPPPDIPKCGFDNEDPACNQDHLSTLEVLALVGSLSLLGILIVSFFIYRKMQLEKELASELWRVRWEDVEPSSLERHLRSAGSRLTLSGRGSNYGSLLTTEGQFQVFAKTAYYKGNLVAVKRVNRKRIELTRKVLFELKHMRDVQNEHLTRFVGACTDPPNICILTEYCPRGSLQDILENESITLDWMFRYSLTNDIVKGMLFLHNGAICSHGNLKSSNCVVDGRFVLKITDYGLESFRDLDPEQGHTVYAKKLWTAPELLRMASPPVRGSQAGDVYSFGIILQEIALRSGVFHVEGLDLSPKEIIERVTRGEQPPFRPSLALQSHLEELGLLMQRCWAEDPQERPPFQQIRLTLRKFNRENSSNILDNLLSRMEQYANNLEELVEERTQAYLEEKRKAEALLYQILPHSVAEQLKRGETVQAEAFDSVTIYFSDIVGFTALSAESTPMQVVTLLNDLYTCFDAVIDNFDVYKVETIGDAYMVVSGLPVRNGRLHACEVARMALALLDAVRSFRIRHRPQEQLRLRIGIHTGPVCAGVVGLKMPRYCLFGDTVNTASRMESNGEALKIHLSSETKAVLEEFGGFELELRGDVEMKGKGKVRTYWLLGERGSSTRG
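Compound pre-incubated 30 min at room temperature on GloSensor-loaded HEK293 cells stably carrying hNpr1 and the pGS-40F cGMP biosensor. Stimulation uses hNppA at 0.1 nM final; luminescence is taken at baseline and 20 min post-agonist.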
* marks the source's active call; other numbers are inactive results; ? = inconclusive; [ ] = dose if it differs, or a comment. % is scaled to controls: 0 for no effect and ±100 for the full control effect; potency is read from the fitted curve at half-maximal effect. The list is partial; rates above refer to the full screens.

NPR1 antag | SMILES
3% | COc1ccc(CN2CC3(CCN(S(=O)(=O)c4c(C)nn(C)c4C)CC3)C2=O)cc1
12% | COc1ccc(-c2nnc3n2CCN(C(=O)Cc2ccccn2)C3)cc1
-8%[70.6 µM] | O=C(C[C@@H]1O[C@H](CNC(=O)Nc2cccc(F)c2)[C@@H](O)[C@H]1O)Nc1ccccc1
-1% | OC[C@@H]1CNC[C@H]1c1nc(-c2cccnc2)no1
6% | CC(C)=CCn1c(-c2ccc(F)cc2)cn2cc(C(=O)N(C)CC(C)O)nc2c1=O (centres undefined)
0.28µM* | O=C1c2cnc(-c3cc4ccccc4o3)nc2OCCN1c1ccccc1
-13% | Cc1cc(=O)n(CC(=O)Nc2ccc(C)c(C)c2)c(N2CCc3ccccc3C2)n1
0% | O=C(NCc1cccnc1)[C@@H]1C[C@@H](O)CN1C1CCN(C(=O)c2cc3ccccc3[nH]2)CC1
-2% | CCN(CC)Cc1cnc2c(C(=O)NC3CCNCC3)cnn2c1
-2% | CCOc1ccccc1N1CCN(C(=O)c2ccc3c(c2)N(C)C2CCCCN2C3=O)CC1 (centres undefined)
0% | CC1CCC(NC(=O)C2CCN(C(=O)c3ncn4c3COC(c3ccccc3)C4)CC2)CC1 (centres undefined)
13% | CCOc1ccc(C(=O)N2CC(C(=O)NCCc3ccncc3)C3(CCOCC3)C2)cc1 (centres undefined)
-2% | Cc1c(F)cccc1NC(=O)N1CCC(Oc2ncccc2C(=O)N2CCCCC2)C1 (centres undefined)
-1% | O=C1NC(=O)C(c2ccc(-c3ccc4nc[nH]c(=O)c4c3)cc2)N1 (centres undefined)
-13% | CCCN(CCC)C(=O)C1COC2(CCN(C(=O)C(C)C)CC2)N1C(=O)c1ccccc1 (centres undefined)
6% | O=c1c2c3c(nn2ccn1Cc1ccc(F)cc1F)CCCC3
1% | CCC(C)NC(=O)C1CCN(C(=O)c2nnn3c2COC(c2ccc(OC)cc2)C3)CC1 (centres undefined)
7% | CCc1ccc(C(=O)NCCn2ccn3nc(-c4ccc(F)cc4)cc3c2=O)cc1
-9% | CC(C)CCNC(=O)CC1Sc2ncccc2N(CC(C)C)C1=O (centres undefined)
4% | Cc1cnc(CC2CCCN(C(=O)C3CCC3)C2)n1Cc1ccccc1 (centres undefined)
-15%[70.6 µM] | O=C(Cc1c[nH]c2ncc(-c3cccnc3)cc12)Nc1ccc(F)cc1
5% | N#Cc1ccc(N2CCN(C(=O)CCc3ccncc3)CC2=O)cc1
2%[70.6 µM] | COc1cccc(-c2cnc([C@@H]3COCCN3Cc3ccc(S(C)(=O)=O)cc3)[nH]2)c1
-1%[70.6 µM] | O=C(Nc1ncc(-c2ccccc2)c2c1OCC2)C1CCOCC1
? | COc1ncccc1-c1cnc2[nH]cc(CC(=O)N3CCOCC3)c2c1
-12% | CCOc1ccc(C2Cn3nnc(-c4nc(-c5cccnc5)no4)c3CO2)cc1 (centres undefined)
-10%[70.6 µM] | COc1cc(F)ccc1-c1cc2c(ccn2Cc2ccncc2)c(N2CCOCC2)n1
-3% | Cn1ncc(N2CCC(CNC(=O)c3cccc4ccnn34)C2)cc1=O (centres undefined)
6% | COc1ccccc1CN1CCC2(CCCN(C3CCOCC3)C2=O)C1 (centres undefined)
-17% | Cc1ccc(NC(=O)N2C[C@H](c3nc(-c4ccncc4)no3)[C@@H](C)C2)cc1C
-9% | C=CCN(C)C(=O)C[C@@H]1c2nc(NC(=O)Cc3ccc(OC)cc3)sc2C[C@@H]2[C@](C)(CO)[C@H](O)CC[C@]21C
-2% | COCc1ccc(C(=O)N2CCC(c3[nH]ncc3-c3ccccc3)CC2)o1
? | Cc1ccsc1C(=O)N1CCC(n2cc(-c3nc(C4CC4)no3)nn2)C1 (centres undefined)
-7% | O=C1CCN(C(=O)CCc2ccccc2)CCCCCCN1
-1% | CCc1ccccc1NC(=O)COc1ccc(NC(=O)C2CC2)cn1
4% | CCC(C)NC(=O)C(NC(=O)c1cccc(OC)c1)C1CCN(C(=O)C2CC2)CC1 (centres undefined)
-15% | Cc1ccc(F)c(OCC(=O)c2ccc3c(c2)N(C(C)C(=O)NCc2ccco2)C(=O)CO3)c1 (centres undefined)
4% | CCc1cc(=O)n(Cc2cccnc2)c(N2CCOCC2)n1
-14% | CCc1noc(-c2cn(C3CCN(C(=O)C(C)Oc4cccc(Cl)c4)CC3)nn2)n1 (centres undefined)
-26%[70.6 µM] | COc1ccccc1CN1Cc2[nH]cnc2C[C@H]1c1nc(-c2cccc(C)c2)no1
-7% | CCC(C)(C)C(=O)NCCc1noc(C2CC2)n1
2% | O=C(O)COc1ccc(-c2nccc3c2C(=O)N(Cc2cccc(C(F)(F)F)c2)CC(COc2ccc4cnccc4c2)O3)cc1 (centres undefined)
9% | CCn1c(C(=O)OC)c(NC(C)=O)c2cc(NC(C)Cc3ccccc3OC)cnc21 (centres undefined)
-1% | C=CCNC(=O)CCc1c(C)nn(-c2ccccc2)c1Oc1ccccc1
4%[70.6 µM] | CNC(=O)c1cc2cc(-c3c(C)noc3C)nc(-c3ccc(F)cc3OC)c2o1
-21%[70.6 µM] | Cc1ccc(CN2CCc3nc(C(=O)Nc4nc(C)cs4)oc3CC2)cc1
-7% | COC[C@@H]1CN(c2ncccn2)C[C@H]1C(=O)O
-2% | COc1cc(CN2CCC3(CCCO3)CCC2=O)cc(OC)c1 (centres undefined)
-2% | COCCOCc1nc(C2CCCCN2C(=O)Nc2cccc(Cl)c2)no1 (centres undefined)
5% | CCCc1noc(-c2ccn3c(CNC(=O)c4ccc5[nH]ccc5c4)nnc3c2)n1
7% | COC(=O)CN1C(=O)N(CCc2ccccc2)C2(CCN(Cc3ccccn3)CC2)C1=O
-2% | CC(C)C(=O)N1CCCCCCNC(=O)[C@@H]2C[C@@H](C(=O)NCCc3c[nH]c4ccccc34)C[C@@H]21
-3% | C1CNC(c2nc(CCOCC3CC3)no2)C1 (centres undefined)
-15% | CC(C)c1ccc(S(=O)(=O)N2CCCC(Cn3cnc4cccnc43)C2)cc1 (centres undefined)
-2%[70.6 µM] | CNC(=O)c1cccc(-c2cnc(Nc3cccnc3)c3c2CCO3)c1
-20%[70.6 µM] | COc1ccccc1C(O)c1nc(Nc2ccc(C(F)(F)F)cc2)n[nH]1 (centres undefined)
0% | C1CC(N2CC(OCC3CC3)C23CCOCC3)CCN1 (centres undefined)
12% | COc1cccc(C(=O)N2CCC3(CC2)NC(=O)CC3C(=O)O)c1OC (centres undefined)
-16% | COc1ccc(-c2cc(N3CCN(C(=O)Cc4ccccc4Br)CC3)n[nH]2)cc1
5% | CCCNC(=O)N1C[C@@H](Oc2ccccc2)C[C@H]1C(=O)N1CCOCC1

Following part:
NPR1 antag | SMILES
? | COc1ccc(S(=O)(=O)N2CCc3c(C(=O)NCc4cccc(F)c4)cccc32)cc1
-17% | C[C@]1(CO)[C@H]2Cc3sc(NC(=O)c4ccc(F)cc4)nc3[C@@H](CC(=O)NCc3cccs3)[C@]2(C)CC[C@H]1O
-1% | CC(C)c1nncn1C1CCN(S(=O)(=O)c2ccc(Cl)cc2)CC1
8% | COc1ccc(C(=O)N2CCn3c(nnc3[C@@H]3C[C@@H](O)CN3C(C)C)C2)c(OC)n1
-8% | N#CC1(c2ccc(-c3cccc(CN4CCOCC4)c3)cc2)CCCC1
1% | Cc1noc(-c2cn(C3CCN(C(=O)c4ccccc4F)C3)nn2)n1 (centres undefined)
-12% | CCC1Oc2ccc(NC(=O)Cc3ccccc3)cc2CN(Cc2ccccc2)C1=O (centres undefined)
3% | COCCC1(C(=O)O)CCCN(CCN2CCCC2=O)C1 (centres undefined)
0% | CN(C)[C@@H]1CN(Cc2ccccc2F)CC[C@@H]1CNC(=O)C1CC1
-2% | COCCNC(=O)N1CCCC(CNC(=O)c2cccc3ccccc23)C1 (centres undefined)
5% | NC(=O)c1ccc(NC(=O)C2CC(=O)N(c3n[nH]c4cccc(F)c34)C2)cc1 (centres undefined)
3% | CN1CCCC(CN(CCc2ccccc2)C(=O)c2cc(C#N)cn2C)C1 (centres undefined)
3% | O=C(NCc1cccc(Cl)c1)c1noc(-c2ccc(F)cc2)n1
1% | CNC(=O)[C@@H]1C[C@H](Oc2cccnc2)CN1C(=O)c1ccc(OC)nc1
9%[70.6 µM] | Cc1nc2c(c(-c3ccc(O)cc3)n1)CN(C(=O)C1CC1)CC2
3% | COc1cccc(NC(=O)c2ccc(N3CC4CC(C3)[C@H]3CCCC(=O)N3C4)nc2)c1 (some centres undefined)
6% | O=[S+]1([O-])NCC2(CCN(Cc3ccccc3C(F)(F)F)CC2)Nc2ccccc21
3% | Cn1cnnc1CC1CCN(S(=O)(=O)c2ccccc2)CC1
-30% | CN(CCCN1c2ccccc2CCc2ccccc21)C(=O)C1CNCCO1 (centres undefined)
-10% | O=C(NCCCN1CCCc2ccccc21)C1Cn2cccc2C(=O)N1Cc1ccccc1 (centres undefined)
? | Cc1ccc(S(=O)(=O)N2CCCC(CCC(=O)N3CCc4ccccc4C3)C2)cc1 (centres undefined)
-4%[70.6 µM] | Cc1noc2c(NC3CCOCC3)cc(-c3cccc(C(F)(F)F)c3)nc12
-3% | CC(C)c1noc(-c2cn(C3CCN(C(=O)c4cccc(N(C)C)c4)CC3)nn2)n1
-2% | Cc1nc2c(s1)CCCC2NC(=O)c1ccc(CCC(C)(C)O)cc1 (centres undefined)
13% | O=C(OCc1ccccc1)N1CCC2(CC1)C(=O)NN=C2c1ccccn1
3%[70.6 µM] | CN1[C@@H](CCC(=O)NCc2ccco2)CNC(=O)[C@@H]2[C@H]1CCN2Cc1cccs1
2% | O=C1CC2(CCN(S(=O)(=O)c3ccccc3)CC2)Oc2ccccc21
-5% | COCCNC(=O)[C@H]1C[C@H](Oc2ccccc2)CN1S(=O)(=O)c1c(C)noc1C
-3% | CCCCN1CCN(C(=O)c2cc3cn(C4CC4)cc3s2)CC1
0% | Cc1cc(C(=O)N2CCC3(CC2)C(=O)N(C)c2ccccc23)nn1C
0% | CCOc1ccc2c(n1)CCN(C(=O)c1cccc(C)c1)C2
-2% | C=CCC(=O)N1CCCC1C(=O)Nc1ccc(-c2cccc(OC)c2)cc1 (centres undefined)
1% | O=C(CN1CC2CC(C1)[C@H]1CCCC(=O)N1C2)NCc1ccco1 (some centres undefined)
-3% | CCOc1ccccc1CN1CCOCCNC(=O)[C@H]2CCCC[C@H]21
8% | COCCO[C@H]1C(=O)N(C2CCN(C(=O)COc3ccccc3)CC2)[C@H]1c1ccncc1
5% | Cc1ccc(-c2cc3c(=O)n(CCNC(=O)c4cccnc4)ccn3n2)c(C)c1
-2% | O=C(C1CCC1)N1CCC(N2CC3CC(C2)[C@H]2CCCC(=O)N2C3)CC1 (some centres undefined)
-2%[70.6 µM] | Cc1ccc(CN2C(=O)[C@@H]3C[C@@H](O)CN3C3(CN(Cc4cccs4)C3)C2=O)o1
-23% | O=C(N[C@H]1CCN2C(=O)c3cc(-c4ccc(F)cc4F)ccc3NC(=O)[C@H]12)c1cccs1
4% | COc1cccc(CCc2nc(-c3nnn4c3COC(c3ccc(C)cc3)C4)no2)c1 (centres undefined)
4% | Cc1ccccc1CNC(=O)C1CCCN(Cc2ccncc2)CCC(=O)NCC1 (centres undefined)
8% | COCCn1c(C)cnc1CC1CCCN(S(=O)(=O)c2cccc(F)c2)C1 (centres undefined)
0% | O=C(CC[C@H]1NC(=O)c2ccccc2NC1=O)NCCn1c(=O)c(=O)[nH]c2ccccc21
1% | Cc1ccc(C(=O)N2CCC3(CC2)NC(=O)N(c2ccc(F)cc2)N3)c(C)c1
-19% | Cc1nc(-c2ccc(OC3CCN(C(=O)Nc4ccccc4)C3)cc2)no1 (centres undefined)
-3% | Cc1noc(-c2ccc(OC(F)(F)F)cc2)c1C(=O)NCc1ccc2c(c1)OCO2
